Compound activity from PubChem BioAssay.
BmaI1: BmaI1 acyl-homoserine lactone synthase inhibition – biochemical, fluorescence intensity, with counterscreen (AID 720554); BmaI1 enzyme assay, fluorescence intensity; hits give high values; test concentration not given here; a few actives read low; strong numbers were not always called active; inhibition, %; actives 0.4% (n = 12,000);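 active means both replicates within 2 robust z-scores of the inhibited control and a quiet counterscreen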;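 further: 0% = uninhibited enzyme and 100% = inhibited control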
BmaI1 counterscreen: further read-out of BmaI1, marked with its call; inhibition, %; measured here: counterscreen; design of the counterscreen not given here;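 first of two replicates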
Active calls of the source: *.

SMILES	BmaI1	BmaI1 counterscreen
CCOC(=O)c1c(-c2cccs2)csc1NC(=O)CSc1nncn1C	17.5	4.5
NS(=O)(=O)c1ccc(CCNC(=O)c2ccc(N3CCCC3=O)cc2)cc1	7.5	5.0
Cc1nn(CCC(N)=S)c2nc(-c3ccccc3)ccc12	82.0	28.5
N#Cc1ccccc1COC(=O)c1ccc(-n2cccc2)cc1	15.5	11.5
O=S(=O)(/C=C/c1ccccc1)N1CCN(Cn2cnc3ccccc32)CC1	3.5	11.5
O=C(COc1ccc2c(c1)OCO2)NCCC1=CCCCC1	10.0	4.0
Cc1cc(C)c(C#N)c(=O)[nH]1	7.5	6.0
COC(=O)Cc1nc(C)cs1	24.5	9.0
CC(C)(C)NC(=O)[C@H]1CC[C@H]2[C@@H]3CC[C@H]4NC(=O)C=C[C@]4(C)[C@H]3CC[C@]12C	4.5	7.5
CC(C)C(C)(C#N)NC(=O)CSc1nc(-c2ccccc2)c(-c2ccccc2)o1 (configuration not stated)	4.5	9.5
Cc1ccnc2nc(C(=O)NCC3COc4ccccc4O3)nn12 (configuration not stated)	1.5	3.5
O=C(COC(=O)c1ccc2c(=O)n3c(nc2c1)CCC3)Nc1ccccc1	17.0	10.0
CC(C1CC1)N(Cc1ccccc1)S(=O)(=O)c1cn(C)c(=O)n(C)c1=O (configuration not stated)	16.5	13.0
COC(=O)c1cc(OC)c(OC)cc1NC(=O)c1nc(-c2ccccc2)oc1C	6.0	6.0
CC(C)C[C@H](NC(=O)[C@@H](O)[C@H](N)Cc1ccccc1)C(=O)O	-3.5	12.5

Next part, starting with the last 5 of the part before.
SMILES	BmaI1	BmaI1 counterscreen
Cc1ccnc2nc(C(=O)NCC3COc4ccccc4O3)nn12 (configuration not stated)	1.5	3.5
O=C(COC(=O)c1ccc2c(=O)n3c(nc2c1)CCC3)Nc1ccccc1	17.0	10.0
CC(C1CC1)N(Cc1ccccc1)S(=O)(=O)c1cn(C)c(=O)n(C)c1=O (configuration not stated)	16.5	13.0
COC(=O)c1cc(OC)c(OC)cc1NC(=O)c1nc(-c2ccccc2)oc1C	6.0	6.0
CC(C)C[C@H](NC(=O)[C@@H](O)[C@H](N)Cc1ccccc1)C(=O)O	-3.5	12.5
Cc1ccc(C(=O)Sc2n[nH]c(-c3cccs3)n2)cc1	17.0	3.5
CC(Sc1nc2cc(Cl)ccc2c(=O)n1Cc1ccco1)C(=O)Nc1ccc(Cl)cn1 (configuration not stated)	13.0	13.0
CCCCn1c(SCn2nnc3ccccc3c2=O)nc2cc(S(=O)(=O)N3CCCCC3)ccc21	7.5	3.0
CN(CC(=O)Nc1ccc(F)c(F)c1F)CN1C(=O)C2CC=CCC2C1=O (configuration not stated)	-4.0	2.0
N#Cc1cccc(NC(=O)CSc2ncccn2)c1	9.5	9.0
c1csc(CN=C2SCCN2C2CCCCC2)c1	20.0	6.0
C/C(=N\Nc1ccccc1Cl)C(c1ccccc1)N1CCOCC1 (configuration not stated)	35.5	3.5
O=C(NCCCn1ccnc1)c1ccc(Cl)cc1	5.0	9.5
c1ccc2c(NN=C3CCCCCC3)nncc2c1	-49.0	-9.0
CC1CC(C)CN(C(=O)COC(=O)c2cccc(S(=O)(=O)N(C)C)c2)C1 (configuration not stated)	20.5	14.0
CCN(CC(=O)Nc1ccc(OC)cc1)C1CCCCC1	7.0	1.0
COc1ccc(CNC(=O)C(C)Nc2cc(OC)c(Cl)cc2OC)cc1 (configuration not stated)	46.5	9.5
Cc1cc(COc2ccc(-c3ccccc3)cc2)no1	11.5	9.0
CC(=O)NCCC(=O)Oc1c(C)ccc(C)c1C	7.0	2.5
CCOC(=O)N1CCN(C(=S)Nc2ccc(C)c(C)c2)CC1	7.0	3.0
NC(=O)c1ccc(NC(=O)COC(=O)C2CC(=O)N(Cc3ccccc3)C2)cc1 (configuration not stated)	1.5	-1.0
NC12CC3CC(CC(C3)C1)C2	-0.5	0.0
Cc1ccc(C(C)(C)CC(=O)O)cc1	2.5	7.5
NC(=O)c1ccc(NC(=O)CN2CC(=O)Nc3ccccc32)cc1	-38.0	-21.0
COc1cc(OC)cc(C(=O)NC(C(=O)N2CCC2)C(C)C)c1 (configuration not stated)	9.5	4.5
CC(C)Cn1c(SCC(=O)N2CCc3ccccc32)nc2ccccc2c1=O	0.5	-5.0
CCCNC(=O)C1CN(S(=O)(=O)c2ccc(C)cc2)c2ccccc2O1 (configuration not stated)	12.0	2.5
CC(C)C(NC(=O)c1ccc(C(C)(C)C)cc1)C(=O)N1CCC1 (configuration not stated)	2.5	3.5
CCOc1ccc(CCNC(=O)COc2cccc(-n3cnnn3)c2)cc1OCC	7.0	7.5
Cc1ccc(NNC(=O)C(C)(C)O)c(C)c1	48.0	18.5
COc1cc2c(cc1NC(=O)C(C)NCc1ccc3c(c1)OCO3)oc1ccccc12 (configuration not stated)	22.5	16.5
CC(C)CN(C(=O)C1CC1)C1CCS(=O)(=O)C1 (configuration not stated)	7.0	2.0
O=C(OCc1nc(-c2ccccc2Cl)no1)c1ccc2c(=O)n3c(nc2c1)CCCCCC3	8.5	10.0
CCc1ccc(C(=O)NCc2ccc3c(c2)OCO3)cc1	10.0	5.0
N#CC(C#N)=CNCC(c1ccc(F)cc1)N1CCOCC1 (configuration not stated)	13.0	12.0
C=CCNc1nc(C(=O)OCC(=O)Nc2scc(-c3cccs3)c2C(=O)OCC)cs1	15.5	14.5
COC(=O)c1cc(CSc2nnc(NC3CCCCC3)s2)oc1C	27.0	5.0
Cc1ccc(Sc2ncccc2C(=O)Nc2ccnn2C2CCN(C)CC2)cc1	11.0	0.5
CSc1ncc(C(=O)NC(C)c2ccccn2)n1-c1ccc(F)cc1 (configuration not stated)	5.5	5.5
Nc1cc2c(cc1Cl)OCCCO2	30.5	3.0
Cc1ccc(C(=O)Sc2nnc3sc4ccccc4n23)cc1	87.5	46.5
CN(C)C(=O)COC(=O)c1cncc(Br)c1	5.0	3.0
N#Cc1cc(Cl)c2c(c1)OCCCO2	15.5	11.5
Cn1c(N)c(C(=O)COC(=O)C2CCN(C3=NS(=O)(=O)c4ccccc43)CC2)c(=O)n(C)c1=O	13.0	6.0
COc1cc(C2NC(=O)NC3=C2C(=O)N(Cc2ccc(F)cc2)C3)cc(OC)c1OC (configuration not stated)	22.5	4.0
C=CCn1c(SCC(=O)Nc2ccc3[nH]c(=O)[nH]c3c2)nnc1-c1ccccc1F	25.0	28.0
Cc1noc(C)c1CSCC(=O)Nc1c2ccccc2n2c(C)nc3ccccc3c12	-3.0	-2.5
O=C(c1ccc2nc[nH]c2c1)N1CCN(C/C=C/c2ccccc2)CC1	14.0	12.5
CCc1nnc2c3c4c(sc3nc(C)n12)CCC4	12.0	11.5
COc1cc(CCC(=O)NCC(c2ccc(F)cc2)N2CCOCC2)cc(OC)c1OC (configuration not stated)	17.5	9.0
Cc1noc(C)c1COC(=O)c1ccc(S(=O)(=O)C(F)F)cc1	6.0	-2.5
Cc1cc(C)cc(NCCC#N)c1	66.5	-0.5
CC(Sc1nnc(-c2ccco2)n1Cc1ccccc1)C(=O)NC1CCCC1 (configuration not stated)	6.0	3.5
O=c1cc(CN2CCOCC2)nc2sccn12	0.5	-0.5
Fc1ccc(Oc2cnccn2)c(Cl)c1	-4.0	-6.5
COc1ccc(N=c2scc(C)n2CCCN2CCCC2=O)cc1	30.5	5.5
CCn1c(O)c(/C=N/N=C2/C(=O)N(C)c3ccccc32)c(=O)n(CC)c1=S	4.5	-3.5
C=CCN(C(=O)CN1CCOCC1)c1nc(C)c(-c2ccccc2)s1	8.5	3.0
C/C(=N\NC(=O)c1cccnc1)c1ccc(S(=O)(=O)NCc2ccco2)cc1	21.0	38.0
O=C(Cc1ccsc1)OCC(=O)N1CCN(S(=O)(=O)c2ccc(Cl)cc2)CC1	3.5	-1.5
COc1ccc(-c2nnc(SC(C)C(=O)NC34CC5CC(CC(C5)C3)C4)o2)cc1 (configuration not stated)	17.0	7.0
CN(C)S(=O)(=O)c1cccc(COC(=O)Cn2cnc3ccccc3c2=O)c1	39.5	8.5
c1csc(CNC2=NCCS2)c1	-4.5	-1.0
CCOC(=O)c1cc(C(=O)NN)c(C)nc1C	7.0	-12.0
CC(=O)NCCC(=O)Nc1nnc(SCc2ccc(C#N)cc2)s1	15.5	10.0

Remaining list, next part:
SMILES	BmaI1	BmaI1 counterscreen
O=C(CCCc1nc2ccccc2c(=O)[nH]1)Nc1ccnn1C1CCCC1	-1.0	-1.5
COCc1c(C(C)C)nc(C(C)C)c(/C=C/[C@@H](O)C[C@@H](O)CC(=O)O)c1-c1ccc(F)cc1	3.5	-2.0
Cc1oc(-c2ccccc2)nc1C(=O)N(C)Cc1cccc(Cl)c1Cl	-0.5	0.5
CCCn1nc(C(=O)N2CCc3ccccc32)c2ccccc2c1=O	-14.5	2.0
CC(C)n1c(O)c(N=NC(=O)C2CC2)c2ccccc21	5.5	2.0
Cc1n[nH]c(C)c1SCC(=O)O	9.0	23.5
COc1ccccc1NC(=O)Cc1noc(CSc2nc3sc(C)c(C)c3c(=O)n2C(C)C)n1	-3.0	-5.0
COC(=O)c1ccc(COC(=O)c2cccc(S(=O)(=O)NCc3ccccc3)c2)o1	30.5	7.0
C1CN=C(NCC2CCCO2)C1 (configuration not stated)	-7.5	-3.0
CCCCS(=O)(=O)Nc1cccc(O)c1	7.0	3.5
CCn1c(NNS(=O)(=O)c2ccccc2F)nc2ccccc2c1=O	73.5	7.5
NC(=O)c1cc(S(=O)(=O)N2CCCC2)ccc1OCc1ccc(F)cc1	15.5	4.5
CCN(CC)S(=O)(=O)c1ccc(C(=O)N2N=C3/C(=C/c4cccs4)CCCC3C2c2cccs2)cc1 (configuration not stated)	-4.0	-2.0
CCc1ccc(NC(=O)C(C)Sc2ccc(S(=O)(=O)N3CCN(C)CC3)cn2)cc1 (configuration not stated)	15.0	7.0
COC(=O)c1sc(N)c(C(=O)OC)c1CSc1nnc(C(F)(F)F)n1C	3.5	-1.5
Cc1ccc(NC(=O)CN(C)Cc2cc(=O)n3ccsc3n2)cc1	11.5	7.0
O=c1c2ccccc2nnn1CSc1nc2cc(Cl)ccc2s1	25.5	15.5
COCCN1C(=O)CS/C1=C(/C#N)C(=O)NCCc1ccccc1	5.0	8.0
CC1CN(C(=O)CSc2nnc(-c3cccs3)n2N)CC(C)O1 (configuration not stated)	0.0	-2.5
CC1CN(Cc2cc(=O)n3c(-c4ccccc4)csc3n2)CC(C)O1 (configuration not stated)	5.5	9.5
CCN(CC(=O)Nc1ccc2c(c1)OCCO2)C(=O)c1cccc(S(=O)(=O)N2CCOCC2)c1	5.5	-3.0
CCOC(=O)N1CCC(=C2c3ccc(Cl)cc3CCc3cccnc32)CC1	1.5	3.5
CCC(C)N(C(=O)CSc1nc2ccccc2n1-c1ccc(C)cc1)C1CCS(=O)(=O)C1 (configuration not stated)	8.5	1.5
O=C(NCC1COc2ccccc2O1)c1ccc2c(=O)n3c(nc2c1)CCCCC3 (configuration not stated)	-12.5	-2.0
Nn1c(SCC(=O)N2CCCC2)nnc1-c1ccco1	12.0	9.0
O=C1CN(C(=O)Cn2ncc(Cl)c(Cl)c2=O)c2ccccc2N1	2.5	1.0
Cc1c(C(=O)OCc2ncc(-c3ccccc3)o2)oc2ccccc12	14.0	14.5
CNC(=O)c1sc(NCc2ccccc2OC)nc1C	-1.0	-0.5
COC(=O)c1ccc(NC(=O)COC(=O)c2cccc(N(C)C)c2)cc1	8.5	10.5
Cc1ccc(S(=O)(=O)NCC(C)(C)N2CCOCC2)cc1C	11.0	1.5

Taken from above.
Under BmaI1 counterscreen, CNC(=O)c1sc(NCc2ccccc2OC)nc1C is listed with -0.5
Under BmaI1, CCC(C)N(C(=O)CSc1nc2ccccc2n1-c1ccc(C)cc1)C1CCS(=O)(=O)C1 (configuration not stated) is listed with 8.5
Under BmaI1 counterscreen, Nn1c(SCC(=O)N2CCCC2)nnc1-c1ccco1 is listed with 9.0
Under BmaI1 counterscreen, Cc1ccc(S(=O)(=O)NCC(C)(C)N2CCOCC2)cc1C is listed with 1.5
Under BmaI1 counterscreen, Cc1c(C(=O)OCc2ncc(-c3ccccc3)o2)oc2ccccc12 is listed with 14.5
Under BmaI1 counterscreen, O=C(NCC1COc2ccccc2O1)c1ccc2c(=O)n3c(nc2c1)CCCCC3 (configuration not stated) is listed with -2.0
Under BmaI1, O=c1c2ccccc2nnn1CSc1nc2cc(Cl)ccc2s1 is listed with 25.5

The results go on.
SMILES	BmaI1	BmaI1 counterscreen
CCN(CC(=O)NCc1ccc(F)cc1)Cn1cnc2ccccc21	-4.5	-5.0
O=c1oc2ccccc2c(O)c1/C=N/N1CCOCC1	-54.0	-38.5
CCN(CC(=O)Nc1ccc2[nH]c(=O)[nH]c2c1)Cc1nc2ccccc2c(=O)[nH]1	7.5	2.0
NC(=O)CSCc1nc2ccccc2s1	13.5	17.5
Cc1ccc(C2=NN(C(=O)CSc3nc(N)cc(N)n3)C(c3ccco3)C2)cc1 (configuration not stated)	-1.5	1.5
Cc1ccc(Nc2nnc(SC(C)C(=O)N3CCC(C)CC3)s2)cc1 (configuration not stated)	19.5	10.0
O=C1CCC(C(=O)NNc2c(F)c(F)cc(F)c2F)=NN1	12.0	0.5
CC1CCC2(CC1)NC(=O)N(NC(=O)COC(=O)CCc1ccccc1)C2=O (configuration not stated)	10.0	2.0
c1ccc(-c2cnc(-c3cccs3)o2)cc1	25.5	21.5
N=P(N1CCOCC1)(N1CCOCC1)C12CC3CC(CC(C3)C1)C2	11.0	14.5
NS(=O)(=O)c1ccc(-c2ccc(/C=C3\C(=O)Nc4cc(Cl)ccc43)o2)cc1	10.5	4.0
Nn1cnnc1SCc1ccccc1Oc1ccccc1	-7.5	-8.5
O=C(Nc1cccc(C(F)(F)F)c1)Nc1nc2ccccc2[nH]1	26.5	55.0
CC(=O)N1CCC(=NNc2nc3ccccc3s2)CC1	71.0	26.0
C=CCN(CC(=O)Nc1ccc(C)cc1)c1ccccc1	5.5	0.5
Cc1cc(C(=O)CSC(=S)N(C)C)c(C)n1-c1nccs1	14.0	-0.5
Cn1c(N)c(C(=O)c2cccc(S(=O)(=O)N3CCc4ccccc43)c2)c(=O)[nH]c1=O	-2.5	1.5

This is a subset; rates above refer to the full screens.
